HPGD block: inhibitors of human 15-hydroxyprostaglandin dehydrogenase (HPGD) | purified HPGD, NADH fluorescence kinetic, PGE2 substrate | hit rate 4.3% among 150,000 | Potency, µM, inactives show top-dose activity change, negative = inhibition, actives largely listed as inhibitors | P15428; active = well fitted inhibition curve with a large enough effect (not every such curve was filed as active); inconclusive = small, poorly fitted or top-dose-only effect, or another doubt; inactive = no such curve, though single readings can be large or run the other way;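 also: top concentration of the series not given in the record; plate controls included wells without enzyme; inactives centre near -10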
Target sequence (P15428 whole entry, looked up): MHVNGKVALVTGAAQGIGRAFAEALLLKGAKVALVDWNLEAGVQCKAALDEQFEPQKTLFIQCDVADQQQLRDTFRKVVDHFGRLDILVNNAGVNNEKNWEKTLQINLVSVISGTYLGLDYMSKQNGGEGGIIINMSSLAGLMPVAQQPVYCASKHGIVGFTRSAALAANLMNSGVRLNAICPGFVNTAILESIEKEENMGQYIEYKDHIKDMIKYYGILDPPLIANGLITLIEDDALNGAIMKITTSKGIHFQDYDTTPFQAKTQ
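20 nM HPGD preincubated 15 min at room temperature with compound in 50 mM Tris-HCl pH 8, 0.01% Tween 20. Started with 1 mM NAD+ and 30 uM prostaglandin E2; NADH fluorescence (360/450 nm) read 5 times over 30-s intervals, last minus first.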
* hit, by the source's call; u = inconclusive. % is scaled to controls: 0 for no effect and ±100 for the full control effect; potency is read from the fitted curve at half-maximal effect.

SMILES	HPGD block
CCc1ccc(/C=C2\Oc3ccc(C(=O)OC)cc3C2=O)cc1	-10%
O=C(NCCc1ccccc1)c1cccs1	-13%
COc1ccc(-c2cc(C(N)=O)nc(N3CCCCCC3)n2)cc1	u
CCN(CC)CCCNC(=O)Cc1c(C(=O)O)n(C)c2ccccc12	-5%
CC1Cc2nc(SCC(=O)N3CCN(c4ccccc4)CC3)n(C)c(=O)c2S1 (stereo not drawn)	-8%
COC1(OC)C(=N/O)/C(=N\O)CCC1O (stereo not drawn)	-1%
CCCN1CNC(=S)N(CC2CCCO2)C1 (stereo not drawn)	-8%
CC(C)(C)NC(=O)CCN1CCOCC1	-1%
C/C(=N\NC(=S)Nc1ccc(F)cc1)C1CC1	0%
N#CCCN(Cc1cccnc1)C(=O)Nc1cccc(Cl)c1	-7%
CCN1C(=O)N(CN2CCOCC2)C2C1N(CN1CCOCC1)C(=O)N2CC (stereo not drawn)	-6%
Cc1ccccc1CN1CCN(CC(=O)NCc2ccccn2)C1=O	-6%
C=C(CO)C1Cc2c(ccc3c2OC2COc4cc(OC)c(OC)cc4C2C3=O)O1 (stereo not drawn)	-9%
COc1cc(Br)cc(CN2CCN(C/C=C/c3ccccc3)CC2)c1O	-9%
COc1cccc2c(=O)n(CC(=O)N3CCCCCC3)ccc12	-30%
O=C(/C=C/c1cccs1)c1ccc(NC(=O)c2ccccc2F)cc1	-13%
CCNC(=O)c1cc(Br)ccc1Cl	-17%
O=C1CN(C(=O)CSc2nc(-c3ccc(Cl)cc3)cs2)c2ccccc2N1	13µM*
O=C(COc1ccc(S(=O)(=O)N2CCCCC2)cc1)NC1CCCCC1	4%
Cc1ccc(NC(=O)Cc2c(Cl)cccc2Cl)cc1S(=O)(=O)N(C)C	-2%
COc1ccc(OC)c(NC(=O)C2CCN(Cc3cnn(-c4ccccc4)c3-n3cccc3)CC2)c1	-19%
CC(=O)OC1CCC2(C)C(CCC3(C)C2C(=O)C=C2C4CC(C)(C(=O)OCCN5CCCCC5)CCC4(C)CCC23C)C1(C)C (stereo not drawn)	-5%
COc1ccc(C(=O)Nc2cccc(-c3cnc4ccccc4n3)c2)cc1	-6%
CC(C)NC(=O)c1cc(=O)n(C)c(=O)n1C	-13%
O=C(NC(=S)NNC(=O)c1ccccc1O)c1ccco1	u
COc1ccc(N(CC(=O)Nc2cccc(C(F)(F)F)c2)S(C)(=O)=O)cc1	-19%
C/C(CC(=O)Nc1ccc2ccccc2c1)=N\NC(=O)c1cnccn1	-11%
Cc1cc(C)nc(N/N=C/c2ccccc2OCc2ccc([N+](=O)[O-])cc2)n1	-4%
Cc1ccc(Cl)cc1Nc1nc(-c2sc(NC(=O)c3ccco3)nc2C)cs1	-23%
COc1ccccc1NC(=O)c1cn(C)c(=O)c2cc(OC)c(OC)cc12	2%

4 entries from above, arranged by the number in HPGD block, high to low:
SMILES	HPGD block
CC(C)(C)NC(=O)CCN1CCOCC1	-1%
C=C(CO)C1Cc2c(ccc3c2OC2COc4cc(OC)c(OC)cc4C2C3=O)O1 (stereo not drawn)	-9%
O=C(NCCc1ccccc1)c1cccs1	-13%
COc1cccc2c(=O)n(CC(=O)N3CCCCCC3)ccc12	-30%

Other compounds follow:
SMILES	HPGD block
CN(C)S(=O)(=O)c1ccc(Cl)c(C(=O)OCC(=O)NC(=O)c2cccn2C)c1	-10%
COc1cc(/C=N/N(C)c2ccccc2)ccc1O	-3%
Cc1ccc(-c2csc(NC(=S)NC(=O)c3ccco3)n2)cc1	0%
CCCCOc1ccc(NC(=S)Nc2cc(C)nc(SCCCC)n2)cc1	-3%
COc1ccccc1NC(=O)c1ccc(Br)o1	-17%
COc1cc2c(cc1NC(=S)Nc1cccc(C)c1)oc1ccccc12	u
C=CCN1C(=NC(=O)CC)SC2CS(=O)(=O)CC21 (stereo not drawn)	1%
Nc1nonc1-c1nc2ccccc2n1Cc1ccc(F)cc1	-17%
O=C(Nc1ccc2nc(-c3ccccn3)[nH]c2c1)C1CCCCC1	u
COc1ccc(C(=O)NNC(=O)c2cc3cc([N+](=O)[O-])ccc3oc2=O)cc1OC	-6%
Cc1ccc(Oc2ccc(NC(=O)Cn3ccsc3=N)cc2)cc1	-13%
CCc1nn(-c2ccccc2)c(N)c1-c1ccc(OC)c(OC)c1	-17%
COc1ccc(-c2nc3c(c4c2C[C@H](c2ccccc2)OC4)CN(C(=O)N[C@@H](C)c2ccccc2)CC3)c(C)c1	-13%
O=C(Nc1ccc(Cl)cc1C(F)(F)F)c1ccccc1	-9%
COc1cc2c(C(=O)N3CCN(C)CC3)c(C)n(-c3ccccc3)c2cc1Br	-26%
CC(=O)c1c(C(C)=O)c(C)n(-c2nc(-c3cccs3)c(C)s2)c1C	-7%
Cc1ccc(NC(=O)C2CC(c3ccc(F)cc3)=NO2)cc1 (stereo not drawn)	-10%
Cc1nc(C)c(C(=O)C2=C(O)C(=O)N(CCN3CCOCC3)C2c2cccs2)s1 (stereo not drawn)	-14%
COc1ccc(S(=O)(=O)N2CCOCC2)cc1NC(=O)COC(=O)C1COc2ccccc2O1 (stereo not drawn)	-4%
CC(C)c1nc(NCC2CCCO2)c(C#N)c2c1COC(C)(C)C2 (stereo not drawn)	u
Cc1ccccc1OCCNC(=O)/C=C/c1ccccc1	-10%
CC(=O)OCC(=O)[C@@]12OC(C)(C)O[C@@H]1C[C@H]1[C@@H]3C[C@H](F)C4=CC(=O)C=C[C@]4(C)[C@@]3(F)[C@@H](O)C[C@@]12C	-2%
O=C(COc1ccccc1)N(Cc1ccco1)C1CCS(=O)(=O)C1 (stereo not drawn)	-11%
CC(C)c1ccc(NC(=O)c2csnn2)cc1	u
CCCCN1C(=O)CN(CCc2ccccc2)C(=O)C1c1ccc(OC)cc1 (stereo not drawn)	0%
Cc1ccc(C(=O)N/C(=C\c2ccccc2)C(=O)NCc2ccncc2)cc1	-19%
CCCSc1cc(N2CCCC2)nc(-c2ccccc2)n1	-8%
COc1ccc(/C=C/c2nc3ccccc3n2Cc2ccccc2OC)cc1	u
OC(COc1ccc2c(c1)CCC2)CN1CCN(c2cccc(Cl)c2)CC1 (stereo not drawn)	-6%
Cc1ccc(NS(=O)(=O)c2ccc(N3CCN(c4ccc(O)cc4)CC3)c([N+](=O)[O-])c2)c(C)c1	-5%
CCOC(=O)C(CC)Sc1ncnc2c1nnn2-c1ccc(F)cc1 (stereo not drawn)	-13%
OCC1O[C@H](OC2C(CO)O[C@@](O)(CO)C2O)C(O)C(O)C1O (stereo partly drawn)	-10%
O=C(O)c1ccc(-n2nnnc2SCc2ccccc2F)cc1	16µM*
COc1cc(C(c2sc3nc(C)nn3c2O)N2CC(C)OC(C)C2)cc(OC)c1OC (stereo not drawn)	-11%
N#CCSc1ncnc2sc3c(c12)CCC3	-5%
CC1(C)CC2CC(C)(CN2C(=O)COC(=O)c2n[nH]c(=O)c3ccccc23)C1 (stereo not drawn)	-6%
Cc1ccc(N=C2NC(=O)/C(=C\c3ccsc3)S2)c(C)c1	u
Cc1ccccc1Nc1cccc2nonc12	-18%
O=C(Nc1ccc(Cl)c(Cl)c1)N(CCCN1CCOCC1)Cc1cccs1	0%
CN(C)S(=O)(=O)n1cnc(-c2ccccc2)c1-c1ccccc1	-7%
OCCCNC(c1ccccc1)c1ccc(O)cc1 (stereo not drawn)	-3%
COc1ccc(C(=O)OCC(=O)NCc2ccco2)cc1OC	-7%
CS(=O)(=O)N1CCC2(CCCN(Cc3ccc(C#N)cc3)C2)CC1	-3%
COc1ccc(N2CCN(C(=O)c3ccc(NS(=O)(=O)c4ccc(F)cc4)cc3)CC2)cc1	-11%
CCOC(=O)c1[nH]c2ccccc2c1NC(=O)CC(C)(C)C	u
Cc1cccn2cc(CNS(=O)(=O)c3cccc(F)c3)nc12	-2%
Cc1nc2ccccc2nc1SCC(=O)c1ccccc1	-19%
CC(=O)N/N=C/c1ccc(OCCOc2ccc(Br)cc2)cc1	-7%
O=C(CN(Cc1ccc(F)cc1)C(=O)C1CSC(=O)C1)NC1CCCCC1 (stereo not drawn)	0%
CCCCCCN(CCCCCC)C(=O)Cc1c(-c2ccc(F)cc2)[nH]c2ccccc12	u
CCOC(=O)N1CCN(C(=O)Nc2ccc(Cl)cc2Cl)CC1	-4%
COc1ccc(S(=O)(=O)NCCC(C)C)cc1C	-9%
O=C(COC(=O)c1ccccc1C(=O)c1ccccc1)c1ccco1	-23%
C=CCn1c(SCC(=O)Nc2sc3c(c2C#N)CCC3)nnc1C1COc2ccccc2O1 (stereo not drawn)	-23%
CN1c2ccsc2/C(=N/NC(=O)c2c(F)cccc2F)CS1(=O)=O	u
Cc1cccc(C(=O)NCc2nnc3c4ccccc4c(-c4ccccc4)nn23)c1	u
Cc1scc(C(=O)NNC(=S)NCC(C)C)c1C	-5%
N#C/C(=C\c1ccc(Sc2nc3ccccc3[nH]2)o1)c1ccccc1	u
COC(=O)N[C@@H](c1ccc(Br)cc1)C(C(=O)OC)C(=O)OC	-3%
Cc1cc(OCC(=O)O/N=C(\N)c2ccccc2)ccc1Cl	-13%

The list goes on.
SMILES	HPGD block
CC[C@H](c1ccc(O)cc1)[C@@H](CC)c1ccc(O)cc1	-9%
O=C(Cn1ncc2c1-c1ccccc1OC2)N1CCN(c2ccccn2)CC1	-12%
CCCOc1cccc(C(=O)Nc2ccc(Br)cc2F)c1	-6%
CC1=NN(c2ccc(Br)cc2)C(=O)/C1=C/c1cccs1	14µM*
Cc1nonc1C(=O)N/N=C/c1ccc(O)cc1	-10%
CCOC(=O)Cc1[nH]nc2c1C(c1cc(OC)ccc1OC)C(C#N)=C(N)O2 (stereo not drawn)	-6%
COC(=O)C(C(=O)OC)C(C[N+](=O)[O-])c1ccc(O)c(OC)c1 (stereo not drawn)	-12%
COc1ccc(-c2cc(C(=O)N3CCN(c4ccccc4)CC3)c3ccccc3n2)cc1OC	u
Cc1ccc(N2CCN(C(=S)c3ccc(N(C)C)cc3)CC2)cc1	25µM*
Cc1cc(NC(=O)CCSc2ccccc2)ccc1Br	-5%
O=C(NCCN1CCN(c2ccccc2F)CC1)C1CCCN(S(=O)(=O)c2cnc[nH]2)C1 (stereo not drawn)	-3%
COc1ccccc1Nc1nc2ccccc2n1C	-9%
Cn1nnnc1Sc1c(Cl)cccc1[N+](=O)[O-]	-5%
CC(NS(=O)(=O)c1ccc(Br)cc1)C(c1cccs1)N1CCN(C)CC1 (stereo not drawn)	-7%
CCN(CC)C(=O)CSc1nc2ccccc2n1CC(=O)N1CCN(c2ccccc2OC)CC1	-1%
C=C1c2cccc(OC)c2O[C@H](C(=O)OCC)[C@@H]1CCC(C)C	-28%
N#Cc1cc(C#N)c(N2CCN(c3ccccn3)CC2)nc1N	-8%
O=C(Cn1c(CO)nc2ccccc21)Nc1cc(C(F)(F)F)ccc1N1CCOCC1	-4%
Cn1c(=O)c2c(nc(NCc3ccco3)n2Cc2ccccc2Cl)n(C)c1=O	6%
Cc1ccc2nc(SCCCCOc3ccccc3)[nH]c2c1	-18%
c1cncc(C(c2nnnn2C2CCCC2)N2CCN(Cc3ccc4c(c3)OCO4)CC2)c1 (stereo not drawn)	-12%
O=C(c1coc2ccccc2c1=O)N1CCN(c2cccc(C(F)(F)F)c2)CC1	-9%
COc1cccc(CS(=O)(=O)c2ccccc2)c1	-2%
CC(=O)N1CCC2(CC1)CCN(c1ccccn1)CC2	u
Nc1nc(Sc2ccc([N+](=O)[O-])c3nonc23)c2[nH]cnc2n1	1.3µM*
CCCC(NC(=O)c1ccco1)c1nc2ccccc2[nH]1 (stereo not drawn)	-4%
COC(=O)c1nnn(-c2nonc2N)c1CSc1ccccn1	-1%
NC(=O)c1ccc(C(F)(F)F)n(Cc2ccccc2Cl)c1=O	-3%
CCc1nnc(NC(=O)CN2CCN(c3cccc(OC)c3)CC2)s1	-8%
COc1ccc(NC(=O)c2ccccc2[N+](=O)[O-])cc1	-10%
C=C(C)COc1ccc(-c2[nH]ncc2-c2ccccc2OC)c(O)c1	-23%
Cc1ccc(NC(=O)c2cc(C)n(-c3ccccc3)c2C)cc1	20µM*
COc1ccc(CCNC(=O)CN(C)S(=O)(=O)c2ccc(Br)s2)cc1OC	-3%
Cc1ccc2cc(CN(Cc3ccco3)C(=O)NCc3ccccc3)c(=O)[nH]c2c1C	-6%
Cc1nnc(SCCN2C(=O)c3ccccc3C2=O)[nH]c1=O	-7%
COc1ccc(NC(=O)CSc2ccc3ccccc3c2)cc1S(=O)(=O)N1CCCCC1	-8%
Cc1cc(C(F)F)n2nc(C(=O)O)nc2n1	1%
CCOC(=O)C1CCCN(c2c(Nc3ccc(OCC)cc3)c(=O)c2=O)C1 (stereo not drawn)	-7%
Cc1cc(C)cc(OCC(=O)N/N=C\c2cn(C)nc2C)c1	-2%
COc1cc(NC(=O)CCc2c(C)nc3nc(C)nn3c2C)cc(OC)c1	-21%

Structures from the list above containing bromine:
SMILES	HPGD block
COc1cc(Br)cc(CN2CCN(C/C=C/c3ccccc3)CC2)c1O	-9%
CCNC(=O)c1cc(Br)ccc1Cl	-17%
COc1ccccc1NC(=O)c1ccc(Br)o1	-17%
COc1cc2c(C(=O)N3CCN(C)CC3)c(C)n(-c3ccccc3)c2cc1Br	-26%
CC(=O)N/N=C/c1ccc(OCCOc2ccc(Br)cc2)cc1	-7%
COC(=O)N[C@@H](c1ccc(Br)cc1)C(C(=O)OC)C(=O)OC	-3%
CCCOc1cccc(C(=O)Nc2ccc(Br)cc2F)c1	-6%
CC1=NN(c2ccc(Br)cc2)C(=O)/C1=C/c1cccs1	14µM*
Cc1cc(NC(=O)CCSc2ccccc2)ccc1Br	-5%
CC(NS(=O)(=O)c1ccc(Br)cc1)C(c1cccs1)N1CCN(C)CC1 (stereo not drawn)	-7%
COc1ccc(CCNC(=O)CN(C)S(=O)(=O)c2ccc(Br)s2)cc1OC	-3%

Compound activity from PubChem BioAssay.

These rows are one share of the data; rates above refer to the full screens.
